Rango dissoc inh = inhibitors of RanGTP-induced Rango-importin beta complex dissociation; O95149+P62826; AID 540253; Biochemical FRET Rango-importin beta, RanGTP-induced dissociation; Potency, µM (top dose mostly 46.1 µM), for inactives: at the highest dose activity change, negative = inhibition; 340,000 tested, 0.071% active; active means falling FRET ratio curve, often poorly fitted, with flat reads before Ran was added; inconclusive means other falling curves, or compound fluorescence or quenching; inactive means flat or rising ratio curve;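 further: potency means the concentration at half of the fitted maximal effect; % of control where 0% means no effect; nearly all actives have a fitted effect of over 45% in size; -100% = wells without RanGTP and RCC1; the record marks most hits as doubtful in a second field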
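Recombinant Rango FRET biosensor (EYFP–snurportin 1 IBB–cerulean CFP10) at 0.1 uM premixed with 0.25 uM importin beta in PBS, 1 mM DTT, 0.02% Tween-20, 0.1% BSA. Compound added 5 min; RanGTP-RCC1 (0.6 uM Ran, 2 mM GTP, 0.2 uM RCC1) then triggers release, read at 45 min.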
GLA inh pH 4.5 = alpha-galactosidase A (human) inhibition, pH 4.5; P06280; purified enzyme, 4-MU-alpha-Gal fluorescence, pH 4.5; activity change, negative = inhibition, % at 105 µM; 230,000 tested, under 10 active; inconclusive = small, poorly fitted or top-dose-only inhibition, or a rising curve; inactive = flat fitted curve, though single readings scatter; no compound was filed as active;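 further: 0% = full activity with enzyme and -100% = basal without enzyme; dose as in the result columns while the protocol names 77 µM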
miR-21 FLuc = raises the signal of a miR-21 reporter | 340,000 tested, under 10 active | Potency, µM (series often up to 38.3 µM), inactives show at the highest dose reporter change, positive = more light | HeLa miR-21 FLuc reporter, luciferase, 48 h; active = well fitted rising curve with a large enough effect; inconclusive = small, poorly fitted or top-dose-only effect; inactive = no such curve, though single readings can be large or run the other way;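 further: % of control where 0% means no effect; miR-21 action dims this reporter so a rising signal means less miR-21 action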
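Using DMEM plus 10% FBS, HeLa miR-21-FLuc cells are incubated with test compounds (final up to about 40uM) for 48 hours; firefly luciferase signal is then imaged following reagent-mediated lysis.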
Rango complex inh = inhibitors of Rango-importin beta complex formation; Q14974; 340,000 tested, 0.031% active; Rango CFP/YFP FRET sensor + importin beta, 45 min; Potency, µM (series often up to 92.2 µM), without a hit: at the highest dose inhibition of complex formation; AID 540263; active = rising FRET ratio curve, often small or poorly fitted; inconclusive = mostly compound fluorescence or quenching in the first reads; inactive = flat curves in all reads;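 further: potency means the concentration at half of the fitted maximal effect; 0% = DMSO wells and 100% = buffer wells lacking importin beta; nearly all actives have a fitted effect of over 15% in size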
Target sequence (Q14974 whole entry, looked up): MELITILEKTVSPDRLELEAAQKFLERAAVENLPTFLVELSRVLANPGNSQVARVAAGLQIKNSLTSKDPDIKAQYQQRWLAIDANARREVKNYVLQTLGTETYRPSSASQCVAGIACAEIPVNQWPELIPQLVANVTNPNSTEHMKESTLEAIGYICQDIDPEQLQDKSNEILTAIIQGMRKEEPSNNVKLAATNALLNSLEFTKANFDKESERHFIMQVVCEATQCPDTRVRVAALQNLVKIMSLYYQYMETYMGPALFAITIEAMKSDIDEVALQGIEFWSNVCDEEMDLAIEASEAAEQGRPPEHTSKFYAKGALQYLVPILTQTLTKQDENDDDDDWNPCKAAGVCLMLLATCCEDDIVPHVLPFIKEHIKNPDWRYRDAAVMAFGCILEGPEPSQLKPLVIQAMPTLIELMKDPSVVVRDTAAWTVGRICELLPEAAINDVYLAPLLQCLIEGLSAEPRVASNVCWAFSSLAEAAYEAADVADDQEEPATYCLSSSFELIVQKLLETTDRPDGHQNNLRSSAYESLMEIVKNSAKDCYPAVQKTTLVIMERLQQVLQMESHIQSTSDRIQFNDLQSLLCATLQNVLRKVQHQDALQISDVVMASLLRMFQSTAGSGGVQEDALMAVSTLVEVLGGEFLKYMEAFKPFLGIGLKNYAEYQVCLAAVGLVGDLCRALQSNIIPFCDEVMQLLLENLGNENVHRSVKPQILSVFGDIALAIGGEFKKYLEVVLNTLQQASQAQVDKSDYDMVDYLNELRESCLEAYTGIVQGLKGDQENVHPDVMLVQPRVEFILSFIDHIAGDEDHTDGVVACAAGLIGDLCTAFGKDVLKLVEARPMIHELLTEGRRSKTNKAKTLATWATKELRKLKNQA
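FRET biosensor Rango (snurportin 1 IBB between N-terminal EYFP and C-terminal Cerulean), 50 nM in PBS/1 mM DTT/0.02% Tween-20/0.1% BSA, preincubated 5 min RT with compound; 0.125 microM importin beta added, 45 min RT, CFP/YFP FRET ratio read.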
Numbers without * were called inactive; ? = inconclusive; nt = no result given; & = joins results of further samples; [ ] = remark or other dose. These rows are one share of the data (hit frequency here may not be typical).

Compound	Rango dissoc inh	GLA inh pH 4.5	miR-21 FLuc	Rango complex inh
Cc1cccc(NC(=S)N(CCCN2CCCC2)Cc2cccn2Cc2ccc(Cl)cc2)c1	2%	3[21.1 µM]	-3%	-0.1%
N#C/C(=C\c1c(N2CCN(c3ccccc3)CC2)nc2ccccn2c1=O)C(N)=O	?	nt	-45%	?
CN1C[C@@H]2C[C@@H](C3=Cc4cc(Cl)ccc4OC3)N3CCC[C@@]23C1=O	-15%	-1	3%	0.5%
COc1ccc(/C=C2\SC(=S)N(C(Cc3ccccc3)C(=O)O)C2=O)cc1 (stereo unspecified)	5%	-6	-4%	-2.7%
CN(C)CCN(C(=O)c1ccc2c(c1)CCCC2)c1nc2cc3c(cc2s1)OCCO3	0%	nt	-1%	-0.8%
CCOC(=O)c1ccc(NC(=O)CSc2nnc(-c3cccs3)n2CC)cc1	10%	-3	5%	7.3%
O=C(COc1ccc(Cl)cc1)Nc1ccc2[nH]ncc2c1	0%	nt	-1%	0.9%
CCOCCOC(=O)C1=C(C)N(C)C(=O)NC1c1cc(Cl)c(O)c(OC)c1 (stereo unspecified)	9%	-5	-12%	-0.2%
CCSc1nnc(NC(NC(=O)c2ccco2)(C(F)(F)F)C(F)(F)F)s1	-4%	4	-12%	7.1%
Cc1cc(C)c(S(=O)(=O)NCC(=O)NCc2ccco2)c(C)c1	9%	-2	-2%	-3.3%
N#CCC(=O)N/N=C/c1cn(Cc2ccc(Cl)c(Cl)c2)c2ccccc12	5%	3	9%	1.0%
COc1ccc(CN(C)C(=O)c2ccc(OCC(=O)Nc3cccc(C(F)(F)F)c3)c(OC)c2)c(OC)c1	0%	nt	nt	-4.6%
O=c1oc2c3c4c(cc2c(C(F)(F)F)c1CCN1CCOCC1)CCCN4CCC3	?	2	-8%	?
Cc1ccc(CN2CCN(Cc3cc4ccccc4o3)CC2CCO)cc1 (stereo unspecified)	-25%	nt	0%	-1.6%
COc1ccc(NC(=S)N/C(=N/CS(=O)(=O)c2ccccc2)c2ccccc2)cc1	-7%	4	-68%	1.9%
Clc1cccc(-c2noc3ncnc(Nc4ccc5c(c4)OCO5)c23)c1	-23%	nt	-20%	-1.4%
CC1(C)CC(=O)c2cc(C(=O)NCc3ccco3)c(=O)n(-c3ccccc3)c2C1	-2%	-2	-14%	-3.0%
COc1cccc2cc(C(=O)NCc3ccc(Cl)cc3)c(=O)oc12	?	nt	0%	4.0%
CC(=O)NCC(=O)OC(C(=O)c1ccccc1)c1ccc(Cl)cc1 (stereo unspecified)	-17%	-2	-8%	-2.4%
Cc1cccc(C)c1NC(=O)NCCSc1snnc1C	-9%	-9	2%	-3.6%
O=C1OCC2=C1C(c1ccc(Cl)cc1)CC(=O)N2c1ccc(F)cc1 (stereo unspecified)	1%	3	0%	-4.4%
N=C(N)Sc1nc(N2CCCCC2)nc(N2CCCCC2)n1	-3%	4	0%	-4.5%
CC1(C)CC(=O)C/C(=N\NC(=O)C2CC2c2ccccc2)C1 (stereo unspecified)	-23%	3	-12%	0.0%
Cc1nc2ccccc2nc1OCc1ccccc1	-12%	-15	-26%	0.0%
CCC1(C)Cc2c(sc3nc(SC)nc(NCCN(C)C)c23)CO1 (stereo unspecified)	-6%	1	-8%	1.2%
COc1ccccc1CN1CCN(S(=O)(=O)c2ccccc2)CC1	2%	3	-5%	0.0%
O=C(NC1CC1)C1=C[C@@H](c2ccccc2)C[C@@H](OCc2ccc(CO)cc2)O1	-17%	-1	6%	-4.0%
Nc1nonc1OCCc1ccccc1	8%	-7	-25%	-1.3%
Cc1cccc(CCN2C(N(C)C)=NC[C@@H]2CC(C)C)c1	4%	nt	nt	5.8%
CCN(CC)S(=O)(=O)c1ccc(N2C(=O)CC2(/C=C/c2ccccc2)C(=O)NC2CCCC2)cc1 (stereo unspecified)	-1%	2	-4%	0.5%
O=C(CSc1ccccc1)Nc1ccccc1C(=O)N1CCCC1	-13%	3	-22%	-0.2%
Cc1nc2nc(-c3ccc(Cl)cc3)[nH]n2c(=O)c1Cc1ccccc1	1%	-4	-5%	2.6%
c1ccc(CNCCC(Cc2ccccc2)c2ccco2)cc1 (stereo unspecified)	11%	-8	0%	-1.8%
CCn1c(SCC(=O)NCc2ccco2)nc2c1c(=O)n(C)c(=O)n2C	11%	5	0%	1.2%
CCOc1cc(C2C(C(=O)c3ccc(C)o3)=C(O)C(=O)N2CCc2ccccc2)ccc1O (stereo unspecified)	-9%	-7	-12%	-4.9%
Cc1ccc(N(C(=O)CNC(=O)c2ccco2)C(C(=O)NC2CCCC2)c2ccncc2)cc1 (stereo unspecified)	-3%	nt	-2%	-0.3%
NC(=O)c1nsc(C(=O)N(Cc2cccnc2)C(C(=O)NC2CCCCC2)c2ccc(F)cc2)c1N (stereo unspecified)	-2%	nt	-10%	-9.7%
Cn1c(=O)c(C(=O)COc2ccc(F)cc2Cl)c(N)n(Cc2ccccc2)c1=O	-14%	1	10%	-1.6%
O=C(Cn1ccc2ccccc2c1=O)NCCC(=O)N1CCN(C(=O)c2ccco2)CC1	-5%	nt	nt	0.3%
Cc1cccc(N2CCN(C(=O)CCNS(=O)(=O)c3ccc4c(c3)oc(=O)n4C)CC2C)c1 (stereo unspecified)	-3%	nt	9%	-2.8%
CN(C(=O)COC(=O)c1ccccc1SCC(=O)N1CCCC1)c1ccccc1	-14%	nt	8%	8.6%
CC1(C)CC(NC(=O)c2ccc(Cl)c(S(=O)(=O)N(Cc3ccccc3)c3ccccc3)c2)CC(C)(C)N1	12%	nt	nt	0.2%
CC(C)C(=O)Nc1cc(S(=O)(=O)Nc2ccc(Cl)cc2)ccc1Cl	1%	-4	-2%	0.0%
Cc1cc(C(=O)NC2CC2)c2ccccc2n1	5%	-27	0%	-0.8%
CCn1c(=O)n(CC)c2cc(S(=O)(=O)N3CCCCC3)c(C)cc21	7%	-4	3%	5.2%
COc1ccccc1Nc1nn2c(=O)c3ccc(C(=O)N4CCC(C)CC4)cc3nc2s1	-8%	nt	15%&25%	-0.4%
CC(=O)NN1C(=O)c2ccccc2NC1c1ccccc1O (stereo unspecified)	14%	nt	-2%	-0.2%
CCCC(=O)C1CCN(Cc2ccccc2)CC1	-7%	2	-2%	0.7%
CC(C)C(CCN1C(=O)CCC1=O)C1CCOC(C)(C)C1 (stereo unspecified)	10%	-3	0%	5.4%
O=C(CCNC(=O)c1ccccc1Cl)Nc1cc(S(=O)(=O)N2CCOCC2)ccc1N1CCOCC1	-3%	3	-2%	6.4%
Cc1ccc(Nc2ncnc3c2nnn3Cc2ccccc2)cc1	8%	-4	-12%	-1.9%
CCc1c(C)nc2ncnn2c1Nc1ccc(C(C)=O)cc1	0%	0	-46%	-0.2%
CCOC1CCc2c(C)nc(N)nc2S1 (stereo unspecified)	9%	-5	-4%	0.3%
NC(=O)c1ccccc1NS(=O)(=O)Cc1ccc(Cl)cc1	1%	-7	-2%	-0.2%
O=C(O)c1cccc(S(=O)(=O)N2CCN(S(=O)(=O)c3ccc4ccccc4c3)CC2)c1	-17%	nt	nt	-3.5%
Cc1cccc(OCC(O)Cn2c(=N)n(Cc3ccccc3)c3ccccc32)c1 (stereo unspecified)	-6%	-6	?	0.8%
CCC1CCCCN1S(=O)(=O)c1ccc2c(c1)CCN2C(=O)C1CCC1 (stereo unspecified)	-5%	?	-3%	0.2%
COc1cccc(NC(=O)c2ccc(NC(C)=O)cc2)c1	5%	5	-37%	-0.1%
CC(CCc1ccccc1)NC(=O)CNC(=O)c1ccccc1Br (stereo unspecified)	24%	nt	-1%	0.0%
CCOc1ccc(CN(C(=O)/C=C/c2ccco2)C2CCS(=O)(=O)C2)cc1 (stereo unspecified)	-10%	nt	-8%	-3.7%

Reprinted from the part before: two entries, then new ones.
Compound	Rango dissoc inh	GLA inh pH 4.5	miR-21 FLuc	Rango complex inh
CC(CCc1ccccc1)NC(=O)CNC(=O)c1ccccc1Br (stereo unspecified)	24%	nt	-1%	0.0%
CCOc1ccc(CN(C(=O)/C=C/c2ccco2)C2CCS(=O)(=O)C2)cc1 (stereo unspecified)	-10%	nt	-8%	-3.7%
O=C(c1ccco1)N1CCCC(c2nc3c(nnn3Cc3ccc(F)cc3)c(=O)[nH]2)C1 (stereo unspecified)	0%	nt	0%	-2.0%
COc1ccc(C2OC(=O)CC2C(=O)NCc2ccc(F)cc2)cc1OC (stereo unspecified)	7%	7	0%	-3.6%
OCc1c(OCc2cccc(F)c2)ccc2ccccc12	-13%	nt	-33%	-2.4%
Cc1ccc(-n2[nH]c(C)c(C=Nc3cc(C)ccn3)c2=O)cc1	-17%	2	-17%	1.0%
Cc1ccc(NC(=O)C2c3ccccc3Oc3ccccc32)c(C)c1	3%	4	-1%	0.1%
COc1cc(C(=O)OCCn2c(=O)c3c(ncn3CCN(C)C)n(C)c2=O)cc(OC)c1OC	1%	-1	-6%	-3.0%
N/C(=N\OC(=O)COc1ccccc1Cl)c1ccccn1	6%	0	-54%	-0.7%
CCCNC(=O)C(Cc1ccccc1)NC(=O)c1ccc(C(C)(C)C)cc1 (stereo unspecified)	-5%	nt	nt	0.1%
C#CCOCCOCCOCCNc1nc(N2CCN(C(=O)Cn3cc(CCCN=C(N)N)nn3)CC2)nc(N2CCN(C(=O)[C@H](CCCCN)n3cc(CCC(=O)O)nn3)CC2)n1	-14%	nt	nt	7.0%
CN(C)C(=O)N1CCN(C(=O)c2ccco2)CC1	5%	-18	-2%	4.0%
O=C(Nc1nc2ccccc2s1)c1cccc(N2C(=O)CCC2=O)c1	5%	nt	-1%	-3.0%
Cn1c(O)c(N=NC(=O)C2COc3ccccc3O2)c2ccccc21 (stereo unspecified)	1%	-6	1%	3.3%
O=C(Nc1cc(S(=O)(=O)N2CCOCC2)ccc1O)c1ccc2c(c1)S(=O)(=O)c1ccccc1C2=O	6%	-6	1%	0.9%
O=C(CCc1nc2ccccc2[nH]1)Nc1ccc2c(c1)OCCO2	-1%	5	-8%	-3.7%
Fc1ccc(-c2ccnn2-c2ccccc2)cc1	-9%	nt	-11%	-0.8%
C=CCNC(=O)CN1CCC(n2nnc3cc(C(F)(F)F)ccc32)CC1	16%	3	-2%	-0.5%
O=C(CN1C(=O)N/C(=C\c2ccccc2OCc2ccc(C(=O)O)cc2)C1=O)Nc1ccc(F)cc1	0%	nt	-2%	2.8%
CCn1cc(CNC(=O)c2cc([N+](=O)[O-])c(C)c([N+](=O)[O-])c2)cn1	-3%	-9	20%	-0.9%
CC(=O)OCCCCCCCCCCC[N+]1(C)CCCCC1	8%	8	-1%	3.1%
O=C(Nc1ccc(SC(F)F)cc1)c1ccc2nccnc2c1	3%	5	8%	-2.7%
COc1ccc2c(CC(=O)N3CCN(S(=O)(=O)c4ccc(F)cc4)CC3)coc2c1	-11%	nt	nt	-1.0%
Cc1ccc(CNC(=O)C2CCN(S(=O)(=O)c3ccc4nc5c(c(C(=O)O)c4c3)CC(C)CC5)CC2)cc1 (stereo unspecified)	12%	nt	1%&0%	-0.3%
Cc1cccc(N(C(=O)c2snc(C(N)=O)c2N)C(C(=O)NCc2ccccc2)c2ccncc2)c1 (stereo unspecified)	16%	nt	-45%	1.8%
CCOc1ccc(CCNC(=O)CN(C)S(=O)(=O)c2cccc3nsnc23)cc1OCC	-12%	-6	1%	0.8%
NS(=O)(=O)c1cccc(NC(=S)NCc2ccccc2)c1	16%	0	-1%	1.3%
COc1ccc(NC(=O)CSc2ccc(-c3ccco3)nn2)cc1OC	-2%	nt	1%	0.9%

Bioassay records deposited in PubChem BioAssay by National Center for Advancing Translational Sciences (NCATS).
